# gsp agonist: qHTS for Agonist of gsp, the Etiologic Mutation Responsible for Fibrous Dysplasia/McCune-Albright Syndrome: qHTS; gsp mutant cells, cAMP HTRF, 30 min; control for the full effect not named in the record; Potency, µM (highest dose often 76.9 µM), for inactives: at the highest dose activation (cAMP increase), most hits filed as activators; 340,000 compounds, 0.13% hits; active = well fitted activation curve with a large enough effect; inconclusive = small, poorly fitted or top-dose-only effect, or another doubt; inactive = no such curve, though single readings can be large or run the other way; cell line not stated here;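 further: phosphodiesterase inhibitor Ro 20-1724 added with compounds to block cAMP breakdown; potency means the concentration at half of the fitted maximal effect; nearly all actives have a fitted effect of over 60% in size; about a fifth of the inactives were tested at one dose only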
#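 Cells in DMEM/10% FBS with G418 were pretreated with compounds in DMSO plus […] (300 uM stock) for 30 min at 37C. cAMP was measured by HTRF (cAMP-d2 plus anti-cAMP antibody-K) after 30 min at room temperature.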
# TRPML1 blocker: qHTS for Inhibitors of the Human Mucolipin Transient Receptor Potential 1 (TRPML1); TRPML1-inducible cells, Ca2+ dye fluorescence, FDSS; active compounds read low; inhibition of EC80 agonist-evoked calcium signal; activity change, negative = inhibition, % (concentration not given with the values); 390,000 compounds, 0.02% hits; AID 624415, 2012; in the data active means activity change below about -50%; inconclusive means about -30% to -50%; inactive means above about -30%;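 further: stimulus is agonist 54-4 at its EC80 concentration; on the % scale 0 is the no-effect control and ±100 the full control effect; the text of the record puts the active cut at -80%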
# Target sequence (Q9GZU1 whole entry, looked up): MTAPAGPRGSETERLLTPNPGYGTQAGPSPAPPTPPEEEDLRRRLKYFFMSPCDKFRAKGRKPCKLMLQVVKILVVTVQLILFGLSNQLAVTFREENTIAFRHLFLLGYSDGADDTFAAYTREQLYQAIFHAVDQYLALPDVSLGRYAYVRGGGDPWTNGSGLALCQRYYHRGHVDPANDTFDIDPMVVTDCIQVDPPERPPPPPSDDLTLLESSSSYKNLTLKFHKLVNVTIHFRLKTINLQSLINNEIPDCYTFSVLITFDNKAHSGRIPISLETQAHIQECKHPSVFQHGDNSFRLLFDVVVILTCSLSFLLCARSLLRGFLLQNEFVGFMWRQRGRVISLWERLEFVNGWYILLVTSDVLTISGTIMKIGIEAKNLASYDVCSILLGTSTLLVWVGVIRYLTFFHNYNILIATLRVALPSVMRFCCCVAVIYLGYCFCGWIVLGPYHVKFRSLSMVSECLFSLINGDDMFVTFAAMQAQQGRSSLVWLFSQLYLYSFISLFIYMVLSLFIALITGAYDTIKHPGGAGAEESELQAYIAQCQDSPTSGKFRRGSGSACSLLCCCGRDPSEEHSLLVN
#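 Calcium fluorescence in TRPML1-DL cells induced overnight with Tet: a 110 s read after compound pin addition, then a 110 s antagonist read after challenge with 54-4 at 4 uM final (EC80).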
# Menin-MLL FL inh: qHTS Assay for Inhibitors Targeting the Menin-MLL Interaction in MLL Related Leukemias: Competition With Fluorescein Labeled MLL-derived Peptide; Fluorescence polarization, fluorescein-MLL peptide displacement from menin; FP activity change, % at 61.4 µM; 290,000 tested, under 10 active; AID 1766, 2009; inconclusive = falling polarisation curve, or a change in total fluorescence; inactive = total fluorescence flat and polarisation flat or rising; no compound was filed as active; the % refers to the polarisation; negative = inhibition;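 further: % of control where 0% means no effect; inhibitors lower the polarisation; unlabelled MLL peptide was the positive control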
# ClpP mod: qHTS Assay for Activators of ClpP; ATP-dependent Clp protease proteolytic subunit (Bacillus subtilis (strain 168)), P80244; purified B. subtilis ClpP, FRET peptide cleavage, 20 min; Potency, µM (titrated, usually from 57.5 µM), inactives show at the top dose activity change, negative = active; 340,000 compounds, 1.9% hits; active = well fitted falling curve with a large enough effect; inconclusive = small, poorly fitted or top-dose-only effect; inactive = no such curve, though single readings can be large or run the other way; further: potency means the concentration at half of the fitted maximal effect; the source files actives as falling curves though it sought activators and does not explain the sign; nearly all actives have a fitted effect of over 65% in size; many hits overshoot -100%
# Target sequence (P80244 whole entry, looked up): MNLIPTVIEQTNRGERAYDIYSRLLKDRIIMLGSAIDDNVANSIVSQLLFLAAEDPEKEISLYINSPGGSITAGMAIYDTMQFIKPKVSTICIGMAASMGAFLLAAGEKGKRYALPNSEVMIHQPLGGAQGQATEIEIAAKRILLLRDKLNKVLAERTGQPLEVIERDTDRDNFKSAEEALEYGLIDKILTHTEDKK
#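 ClpP 10 microg/mL final, pH 8 Tris/KCl buffer with BSA, glycerol, Tween-20; compound pinned in; FRET-FV substrate; RT 20 min; Ex320/Em430; ΔFRET vs ADEP 5.8 microM, DMSO, no enzyme.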
# TRPV1 potentiator: HTS Assay for Compounds that Act as Potentiators of the Vanilloid Receptor 1. Transient receptor potential cation channel subfamily V member 1 (Homo sapiens), Q8NER1. TRPV1-expressing cells, Fluo-8 calcium influx, capsaicin EC20 potentiation; host cell line not named in the record; control for the full effect not named in the record. potentiation, % at 8.33 µM. 320,000 compounds, 0.02% hits. AID 540277, 2011; active means potentiation above 80%; inconclusive means 30% to 80%; inactive means below 30%; further: 0% is about no effect
#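 TRPV1-expressing cells were cultured overnight at 35.5C and loaded with Fluo-8 calcium dye for 40 to 90 min at room temperature. After a 10 s baseline, compound was added and calcium influx was read kinetically for 3 min (ex 480/em 520 nm).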
# Sfp inh: qHTS Assay for Inhibitors of Bacillus subtilis Sfp phosphopantetheinyl transferase (PPTase); Biochemical Sfp PPTase activity, qHTS; 310,000 compounds, 3.5% hits; Potency, µM, for inactives: max response, negative = inhibition, usual class: inhibitors; 4'-phosphopantetheinyl transferase ffp (Bacillus subtilis), Q9F4F7; active means well fitted inhibition curve with a large enough effect; inconclusive means small, poorly fitted or top-dose-only effect, or another doubt; inactive means no such curve, though single readings can be large or run the other way;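 further: the enzyme is Sfp with the accession as filed and its product quenches rhodamine fluorescence; potency means the concentration at half of the fitted maximal effect; 0% = enzyme reaction without inhibitor and -100% = no enzyme wells; top concentration of the series not given in the record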
#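 Step 1, compound plus 15 nM Sfp-PPTase, 15 min, room temperature. Step 2, add rhodamine-CoA (5 uM) and BHQ-2-YbbR (12.5 uM). Step 3, read 525/598 nm fluorescence at 0 and 30 min.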
# gsp antagonist: qHTS for Antagonists of gsp, the Etiologic Mutation Responsible for Fibrous Dysplasia/McCune-Albright Syndrome: qHTS | Potency, µM (doses to about 76.9 µM), for inactives: top-dose activity change, negative = inhibition, hits mostly inhibitors | 340,000 compounds, 0.4% hits | gsp-mutant cells, cAMP HTRF, 30 min; control for the full effect not named in the record | AID 624288, 2012; active = falling curve of any shape with a large fitted effect; inconclusive = falling curve, mostly with a smaller effect; inactive = flat or rising curve; cell line not stated here;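 further: intracellular cAMP measured with PDE inhibitor Ro 20-1724 present during compound exposure; potency means the concentration at half of the fitted maximal effect; on the % scale 0 is the no-effect control and ±100 the full control effect; nearly all actives have a fitted effect of over 65% in size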
#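 G418-selected cells were plated in DMEM/10% FBS for 16-24 h at 37C, then treated with compounds plus the PDE inhibitor […] (300 uM solution added) for 30 min at 37C. Intracellular cAMP was measured by HTRF after 30 min lysis at room temperature.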
# * hit, by the source's call; ? = inconclusive; . = no result given; & = joins results of further samples; [ ] = dose if it differs, or a comment.
SMILES,gsp agonist,TRPML1 blocker,Menin-MLL FL inh,ClpP mod,TRPV1 potentiator,Sfp inh,gsp antagonist
COc1cc(OC)c(-c2noc(C(=O)OC(C)(C)C)c2C(=O)OC(C)(C)C)c(OC)c1,-58%,-19,1.7,-4.3%,6,7%,-3%
Cc1cccc(N2CCN(S(=O)(=O)c3cn(C)cn3)CC2)c1C,9%,-13,-2.7,-2.6%,-3,10%,1%
COc1nc(-c2ccccc2)cc(-c2ccc3c(c2)OCO3)c1C#N,3%,-18,-0.4,.,0,-4%,-2%
COc1ccc([N+](=O)[O-])cc1NC(=S)NC(=O)C(C)(C)C,0%[15.4 µM],-2,-0.5,.,-3,3%,-14%
CCOc1ccc(/C=C/C(=O)Nc2ccccc2C(F)(F)F)cc1,4%,-12,-4.0,-3.0%,1,1%,-19%
Cc1ccc([C@H]2C[C@H](O)[C@@H](n3cc(-c4ccc(F)cc4)nn3)CN2C(=O)c2cccs2)cc1,-89%[inhibitor],0,.,-2.0%,.,.,.
CCn1c(=N)n(CC(O)c2cccs2)c2ccccc21 (stereo not given),?,-1,-0.6,0.3%,5,-6%,9%
COCC(=O)NCc1nc2ccccc2n1Cc1ccccc1F,-5%,-2,-2.6,-0.9%,2,5%,-8%
CC(C)=CCC/C(C)=C/CNC(=O)C[C@H]1C[C@H](C(=O)N2CCOCC2)[C@@]2(C)c3[nH]c4ccc(Cl)cc4c3CCN2C1=O,.,8,.,0.3%,.,.,3%
CC(C)CC(NC(=O)c1cccc(Cl)c1)C(=O)O (stereo not given),-2%,-2,5.3,.,7,-15%,4%
O=C(O)c1ccccc1SC1CC(=O)N(c2ccccc2)C1=O (stereo not given),3%,-12,-4.9,-1.7%,10,79µM*,4%
CC1CCN(S(=O)(=O)N2CCC(C(=O)NCc3ccc(F)cc3Cl)CC2)CC1,-1%,8,.,0.1%,.,.,.
O=c1oc2ccc3ccccc3c2cc1-c1nnc(-c2cccs2)o1,1%[15.4 µM],5,1.4,-23%,1,13%,-3%
CCCCN1C[C@H](Cc2ccccc2)[C@@H](CC(=O)NC)C1=O,-21%,-4,.,1.8%,.,.,.
CCCCNc1nc(N(C)c2ccccc2)nc(-n2ccnc2)n1,0%,10,-2.4,-0.7%,-5,-16%,13%
NC(=O)c1ccc(NC(=O)CCCc2nc(-c3ccccc3Cl)no2)cc1,?,46,5.6,-3.8%,-9,5%,4%
O=C(NC1CCCc2ccccc21)c1ccccc1OC(F)F (stereo not given),-11%[15.4 µM],-4,-0.6,.,-15,12%,-3%
O=C(NC1CC1)C1=C[C@H](c2ccc(C(F)(F)F)cc2)C[C@H](OCCCCO)O1,.,10,.,-3.5%,.,.,0%
Cc1ccc(-c2nc(CC(=O)Nc3cccc(S(=O)(=O)NC4=NCCC4)c3)cs2)cc1,-7%,-8,.,-6.0%,?,.,-15%
COc1ccc(CNC(=S)Nc2cc(C)cc(C)c2)cc1,-20%,-5,2.7,-0.8%,-16,3%,8%
CCCn1nc2ccccc2c1P(=N)(N1CCOCC1)N1CCOCC1,-29%,-15,6.4,-26%,1,16%,-1%
C[C@@H]1CN([C@H](C)CO)C(=O)c2cc(Br)cnc2O[C@@H]1CN(C)C(=O)NC1CCCC1,?,-2,.,3.0%,.,.,.
COc1ccc(N2CCN(c3cc(C)c4ccc(C)cc4n3)CC2)cc1,-1%[15.4 µM],-7,2.8,-28%,3,-7%,-10%
COc1ccc(CCN2C(=O)CN=C2Nc2ccc(F)cc2)cc1OC,20%[15.4 µM],7,-0.1,.,0,14%,-1%
CC(OC(=O)c1ccc2c(=O)n3c(nc2c1)CCCCC3)C(N)=O (stereo not given),8%[15.4 µM],-21,-0.9,.,-6,11%,10%
N#Cc1c(-n2cccc2/C=N/O)sc2c1CCCC2,0%,67,0.0,-21%,-7,15%,-10%
Cc1cc(C)nc(-n2ncc3c2CC(c2cccc(Cl)c2)CC3=O)n1 (stereo not given),-59%[inhibitor],6,1.9,-0.5%,-3,-3%,-23%
CCc1nc2ccc(C(=O)N3CCN(c4ccccc4F)CC3)cc2nc1CC,6%,-20&-6,.,?,10,-3%,-2%
CC(=O)Nc1cccc(N=NN2CCOCC2)c1,-2%[15.4 µM],14,-2.8,.,6,9%,4%
Cc1ccccc1C(=O)NC1CCN(CC(=O)Nc2ccc(N(C)C)cc2)CC1,-31%[inhibitor],-6,-5.2,1.3%,5,9%,-14%
Cc1ccccc1-c1nc(CS(=O)CC(=O)NCc2ccc3c(c2)OCO3)c(C)o1 (stereo not given),-4%,-2,.,-0.3%,?,1%,2%
COc1cccc(-n2c(=S)[nH]c3c(oc4ccccc43)c2=O)c1,16µM*,34,3.0,-14%,29,-27%,1%
O=C(Nc1cccc(F)c1)Nc1ccc2c(c1)C(=O)OC2,20%[15.4 µM],17,1.2,.,-22,-3%,3%
O=C(Oc1ccccc1)c1cccc2cccc(C(=O)Oc3ccccc3)c12,5%,26,3.1,-14%,8,-13%,-24%
O=C1CCC(c2ccccc2)(c2ccccc2)CC1,35%,13,-3.9,-1.2%,-21,1%,-6%
COc1cccc(/C=C(/C(=O)OCC(=O)NCC2CCCO2)c2ccccc2)c1 (stereo not given),?,42,-1.2,.,-16,13%,-6%
O=C(N/N=C/c1cc([N+](=O)[O-])c(N2CCOCC2)cc1N1CCOCC1)c1cccnc1,30%[15.4 µM],46,-1.1,.,-3,0%,-9%
CCCCOc1ccccc1C(=O)N(Cc1ccc(C)o1)C1CCS(=O)(=O)C1 (stereo not given),-47%,-4&-10,.,-0.3%&-0.5%,-17,-10%,-16%
COc1ccccc1NC(=O)CSc1nnc(Cc2cccn2C)n1-c1ccc(F)cc1,3%,2,4.0,2.8%,18,0%,-4%
CCOc1ccc(NC(=O)C(=O)NCc2ccncc2)cc1,3%[15.4 µM],4,-2.3,.,-12,18%,-11%
Cc1ccc(S(=O)(=O)NCC(=O)N2CCCC2C(=O)O)cc1 (stereo not given),-2%,-14,4.1,0.2%,-22,12%,3%
CC12CCC(C(=O)N3CCc4ccccc43)(CC1=O)C2(C)C (stereo not given),-21%,13,0.4,-5.2%,-4,17%,-1%
O=Cc1ccc(C(=O)OCC(=O)NCc2ccco2)cc1,5%[15.4 µM],7,.,-0.8%,.,.,-8%
C=CCOc1ccc(CNc2ccc3[nH]c(=O)[nH]c3c2)cc1OCC,-24%[15.4 µM],11,-1.1,.,-3,13%,-17%
COc1cc(NC(=O)CC2NCCNC2=O)cc(OC)c1 (stereo not given),3%,-6,0.7,-2.2%,-11,15%,6%
O=C(COC(=O)c1cc([N+](=O)[O-])ccc1N1CCOCC1)Nc1ccc(Cl)cn1,4%,10,.,0.9%,-4,8%,0%
NC(=O)c1ccc(NC(=O)COC(=O)c2ccc3c(c2)OCO3)cc1,-17%,-3,.,-19%,2,.,10%
CCc1ccc(NC(=O)c2ccc(S(=O)(=O)NCc3cccnc3)cc2)cc1,7%,-4,-2.0,.,-31,-1%,3%
CC(Nc1cccc2ccccc12)C(=O)N/N=C/c1ccc([N+](=O)[O-])cc1 (stereo not given),-11%[15.4 µM],1,-1.0,0.2%,-13,32µM*,?
Cc1cccc2sc(N(CCCN(C)C)C(=O)c3ccco3)nc12,?,27,1.4,.,0,5%,13%
CCOc1ccccc1CNC(=O)C1CCN(c2nn3c(=O)cc(C)nc3s2)CC1,18%,-1,.,-4.9%,-4,7%,-11%
CC(=O)c1ccc(NC(=S)NCCc2ccccn2)cc1,12%,4,-3.3,-0.3%,5,-7%,0%
Cn1c(CNC(=O)c2ccco2)nnc1SCC(=O)Nc1cccc(Br)c1,-5%,-4,2.4,-0.3%,-6,11%,0%
CNC(=S)N/N=C(\C)c1ccc2c(c1)OCO2,-70%[inhibitor],-9,0.1,-2.6%,5,79µM*,6%
COc1ccc(C2=NN(C(=O)CN3CCOCC3)C(c3nc4ccccc4[nH]3)C2)cc1 (stereo not given),-27%[15.4 µM],5,1.6,.,4,14%,5%
CN(C)C(=O)CSc1ncccc1-c1nc2ccccc2[nH]1,9%[15.4 µM],-2,-0.8,-0.3%,3,4%,-8%
Cc1ccc(-c2nn(CC(=O)Nc3ccc4c(c3)nc3n4CCOC3)c(=O)c3ccccc23)cc1,-63%[inhibitor],23,0.3,-0.5%,-14,-2%,5%
COc1ccc(N(Cc2cc3cc(OC)ccc3[nH]c2=O)C(=O)C2CCCO2)cc1 (stereo not given),?,-9,-1.5,18µM*,-1,12%,-3%
COc1ccc(/C=C(\NC(=O)c2ccccc2)C(=O)OCC2CCCN3CCCCC23)cc1OC (stereo not given),-23%[15.4 µM],0,2.3,.,2,10%,4%
O=C(O)C1Oc2ccccc2C1c1ccccc1 (stereo not given),1%,20,.,.,.,.,4%
O=C(N/N=C/c1ccc(N2CCOCC2)o1)c1ccccc1[N+](=O)[O-],?,14,1.6,2.0%,2,16µM*,-6%
CS/C(=N\S(=O)(=O)c1cccs1)Nc1ccc(F)cc1,4%,-22,-1.1,-7.7%,22,7%,-16%
Cc1ccccc1CN1C(=O)c2ccccc2Sc2ccc(C(=O)O)cc21,2%,-8&-1,-4.5,1.9%&-0.2%,-4,-11%,-17%

# Bioassay records: PubChem, National Center for Advancing Translational Sciences (NCATS)
